# From PubChem
# Bfl-1 A1 inh: inhibitors of the anti-apoptotic protein A1, read as caspase activation | MEF A1-2A-BIM cells, Caspase-Glo 3/7 luminescence, 3 h; percent of clofoctol response, vehicle zero | caspase activation, % (no concentration beside the values) | 0.066% of 330,000 active | AID 2462;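 active = over half of replicate activation scores above 10%, or exactly half above 10 with the replicate mean above 10; inconclusive = replicate mean below 10 yet half the replicates above 10; inactive = over half of replicates below 10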;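 note: wells of about 30 µL received 50 nL stock; many hits fall short of the cut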
# HNF4A DNA FP: change in binding of human HNF4 alpha to DNA; AID 1224865; HNF4a-FITC DNA binding, fluorescence polarization, 1 h; 0.3% of 360,000 active; P41235; activity change, % at 10 µM; in the data active = activity change above about 30%, passing the limit was not always enough;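 note: controls were the assay level and a saturating level of protein; the project sought stronger binding though the title names inhibitors; some compounds called inactive have numbers as strong as hits; positive values seem to mean higher polarization but the record does not say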
# UCH37 DUB inh: human UCH37 deubiquitinating enzyme inhibition | inhibition, % (concentration not given with the values) | AID 588478 | purified proteasome/UCH37, Ub-AMC cleavage fluorescence | 0.33% of 330,000 active;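 active = mean of two replicates above 20%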;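 note: 0% = compound-free wells with enzyme and 100% = wells lacking proteasome; stock transfer was 100 nL into about 20 µL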
#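 Material: human UCH37 enzyme supplied as purified proteasome complex / Amount: 0.15 nM proteasome as dispensed / Buffer or medium: pH 7.4 Tris-HCl (50 mM) with ovalbumin, ATP-MgCl2, DTT / Times: preincubation 30 min, reaction 25 min, room temperature / Technique: AMC fluorescence from Ub-AMC cleavage, excitation 355 nm, emission 460 nm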
# Vif TR-FRET: inhibitors of Vif binding to APOBEC3G peptide, primary screen, biochemical, TR-FRET, GST-Vif 1-94, biotin-A3G peptide, dose response retest (AID 1117319); TR-FRET GST-Vif / biotin-A3G peptide binding; higher % means a stronger effect; test concentration not given here; strong numbers were not always called active; inhibition, %; hits with a dose series show IC50 in µM; 0.57% of 260,000 active;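 active = above the screen mean plus three standard deviations and confirmed in dose response; inconclusive = results disagree or hit not tested in dose response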;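 note: Vif residues 1-94 fused to GST binding biotinylated APOBEC3G peptide 110-148; 0% = full assay without inhibitor and 100% = GST in place of GST-Vif; retest series ran down from 100 µM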
# B2AR ag: agonists of human beta-2 adrenergic receptor inducing internalization; P07550; Am2.2-beta2AR cells, FAP receptor internalization, flow cytometry; reference of the scale not given here; AID 504454; response, % (test concentration not listed); 0.43% of 340,000 active;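 active = response above a set limit, near 3 SD of response in nonfluorescent compounds, cut at about 42% in these data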;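 note: stock transfer was 100 nL into about 11 µL; a reference agonist was the positive control; negative values mostly stem from fluorescent compounds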
# LANA-H2A inh: blocks KSHV LANA binding to histone H2A/H2B. Q9QR71. cell-free LANA-H2A/H2B peptide, fluorescence polarization. inhibition, % (test concentration not listed). 0.6% of 320,000 active. AID 2629; in the data active = inhibition mostly above about 10%, no sharp cut-off; inactive = mostly below about 6.7%;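 note: stock transfer was 7.5 nL into about 10 µL; 0% = median of vehicle wells and 100% = median of positive control wells; one replicate is shown; the record names a cut of 25% in any replicate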
# Target sequence (Q9QR71 whole entry, looked up): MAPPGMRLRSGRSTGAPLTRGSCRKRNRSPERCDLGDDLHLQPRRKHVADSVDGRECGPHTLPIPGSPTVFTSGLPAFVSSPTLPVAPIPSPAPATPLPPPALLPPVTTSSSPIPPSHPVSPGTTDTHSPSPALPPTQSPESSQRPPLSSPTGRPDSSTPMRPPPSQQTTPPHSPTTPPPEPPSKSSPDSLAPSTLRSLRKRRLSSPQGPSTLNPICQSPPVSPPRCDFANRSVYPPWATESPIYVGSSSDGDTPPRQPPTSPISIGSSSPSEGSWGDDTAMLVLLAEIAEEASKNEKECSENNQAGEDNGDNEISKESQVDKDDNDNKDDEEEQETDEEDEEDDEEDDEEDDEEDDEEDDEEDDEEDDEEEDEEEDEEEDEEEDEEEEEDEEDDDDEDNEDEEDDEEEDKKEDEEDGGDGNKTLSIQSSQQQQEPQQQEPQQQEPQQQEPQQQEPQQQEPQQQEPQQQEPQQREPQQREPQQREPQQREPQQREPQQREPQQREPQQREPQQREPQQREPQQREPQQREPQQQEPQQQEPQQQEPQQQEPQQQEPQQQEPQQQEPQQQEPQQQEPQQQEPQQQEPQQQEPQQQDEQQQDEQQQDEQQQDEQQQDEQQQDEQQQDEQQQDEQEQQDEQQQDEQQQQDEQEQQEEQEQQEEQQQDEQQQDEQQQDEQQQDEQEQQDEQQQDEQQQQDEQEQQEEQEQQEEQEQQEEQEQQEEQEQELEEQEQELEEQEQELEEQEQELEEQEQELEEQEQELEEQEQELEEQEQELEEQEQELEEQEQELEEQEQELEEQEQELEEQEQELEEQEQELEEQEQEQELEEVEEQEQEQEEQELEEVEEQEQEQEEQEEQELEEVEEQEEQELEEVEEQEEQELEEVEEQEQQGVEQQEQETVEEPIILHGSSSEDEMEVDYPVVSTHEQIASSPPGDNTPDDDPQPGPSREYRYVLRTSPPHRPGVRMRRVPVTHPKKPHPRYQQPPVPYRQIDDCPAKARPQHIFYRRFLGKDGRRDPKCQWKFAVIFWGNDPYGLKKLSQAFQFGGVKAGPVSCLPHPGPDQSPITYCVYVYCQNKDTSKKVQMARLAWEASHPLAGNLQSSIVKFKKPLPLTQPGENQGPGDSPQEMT
# Ecoli growth: E. coli growth inhibition; AID 1053175; Escherichia coli growth, OD600, 23 h; active compounds read low; OD600 absorbance (no concentration beside the values); 0.21% of 330,000 active;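 active = OD600 absorbance below the run mean of sample wells minus 3.6 SD, in any replicate, cut at about 0.56 in these data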;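 note: stock transfer was 300 nL into about 60 µL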
# Active calls of the source: *; ? = inconclusive; / = no result given; & = joins results of further samples. Compounds as they come; overall some 2.1% were active at least once.
SMILES,Bfl-1 A1 inh,HNF4A DNA FP,UCH37 DUB inh,Vif TR-FRET,B2AR ag,LANA-H2A inh,Ecoli growth
C[C@]12CC[C@H](OC(=O)CCC(=O)O)CC1=CCC1C2CC[C@@]2(C)C1CC[C@@H]2N (stereo partly specified),-0.2,-0.9,6.1,-4%,-2,-7.8,0.73
CNc1nc2c(c(=O)n(C)c(=O)n2C)n1Cc1ccccc1,-0.1,-0.8,6.5,-7%,-15,4.3,0.72
O=C(NNC(=O)c1ccco1)c1cccc(Br)c1,0.1,1.0,0.5,/,1,-4.5,0.67
CCCCc1nnc(NC(=O)C2CC(=O)N(c3ccc4c(c3)OCCO4)C2)s1 (stereo unspecified),-0.8,0.4,3.3,6%,9,1.8,0.61
CCOc1cc(C2C(C(=O)O)c3cc(OCC)c(OCC)cc3C(=O)N2C)ccc1O (stereo unspecified),0.9,2.2,1.4,8%,-2,-4.1,0.74
O=C(CSc1n[nH]c(-c2ccccc2)n1)NC(=O)NCc1ccco1,-0.6,-14,1.0,?,9,-3.8,0.62
COC(=O)c1ccccc1C(=O)c1cccc2ccccc12,-2.0,-0.3,5.3,/,2,3.5,0.67
CC(C)(O)C#Cc1ccc(CN2CCN(Cc3ccccc3)C(CCO)C2)cc1 (stereo unspecified),0.3,-1.5,-2.6,/,-2,2.8,0.72
Cc1nn(C)cc1CNC(=O)C1C2CCC(O2)C1C(=O)O (stereo unspecified),0.0,/,/,-6%,/,-5.2,/
CC(NC(=O)c1ccc(S(=O)(=O)Nc2ccccc2Cl)cc1)c1ccncc1 (stereo unspecified),1.3,3.5,2.1,-3%,-6,4.4,0.72
CCN1C(=NCC(C)C)N[C@@H](c2cccc(F)c2)C(C(=O)OC)=C1C,-0.2,-1.1,5.2,/,5,-1.0,/
O=S1(=O)CCC(NC(=S)Nc2ccc(Cl)cc2)C1 (stereo unspecified),-0.6,1.1,1.1,/,-2,0.0,0.71
Cc1nc2nc(-c3ccccc3)cc(=O)n2[nH]1,-4.4,-0.1,1.8,-6%,-1,-1.6,0.7
Nc1ncc2c(n1)-c1ccccc1CC2,-0.4,0.5,-378,-1%,0,-7.0,0.59
O=C(COC(=O)C1CC2C=CC1C2)NCCc1ccccc1 (stereo unspecified),1.0,-10,3.2,/,0,1.1,0.67
CCOc1ccc(C(C(=O)NC2CCCCC2)N(C(=O)c2csnn2)C2CC2)cc1 (stereo unspecified),-0.1,3.6,2.5,/,-2,4.5,0.68
COc1cccc(C(=O)OC(C)C(=O)Nc2ccc3c(c2)OCO3)c1 (stereo unspecified),-0.1,-0.4,1.5,-1%,-2,3.7,0.67
C#CC[N+](C)(C)CC#Cc1ccc(C)cc1,-0.2,3.3,5.7,-3%,5,5.3,0.67
Cc1ccsc1C(=O)NNC(=O)c1ccncc1,/,-1.8,2.6,-1%,-2,/,0.67
COc1cc(C(=O)Nc2ccc(C(=O)c3cccs3)cc2)cc(OC)c1OC,0.1,-0.5,4.6,/,5,-3.0,0.67
C[C@H](CO)N1C[C@H](C)[C@H](CN(C)S(=O)(=O)c2ccccc2)Oc2c(NS(C)(=O)=O)cccc2C1=O,-0.4,-2.0,-0.8,/,-11,6.6,0.76
COC(=O)CNC(=O)c1ccc2c(c1)S(=O)(=O)c1ccccc1C2=O,-0.4,0.7,3.2,3%,2,0.2,0.68
Clc1ccc(CN2CCN(c3ccccc3)CC2)cn1,-0.4,-3.6,-2.6,-6%,2,-0.4,0.67
[O-][n+]1onc2c1CCc1nnccc1-2,1.3,-3.0,0.6,3%,1,1.9,0.69
O=C(Nc1nncs1)c1ccccc1Br,0.3,-2.1,2.2,17%,-2,0.0,0.66
NS(=O)(=O)c1ccc(CCNC(=O)c2ccc3c(c2)N(Cc2ccccc2)CCS3)cc1,0.9,1.7,-124,/,8,0.1,0.66
O=C(O)C1CCN(C(=O)NC2CCCCC2)CC1,-0.1,-2.0,0.6,1%,-3,-1.3,0.71
C/C(=N\NC(=S)Nc1ccccc1C)C1Cc2ccccc2C(=O)O1 (stereo unspecified),-0.2,0.3,/,-15%,18,2.0,/
O=C(Cn1c(=O)oc2ccccc21)Nc1ccc(F)cc1,0.7,-1.1,3.4,0%,-5,0.1,0.71
Cc1c(NC(=O)C(C)OC(=O)COc2ccc(C#N)cc2)c(=O)n(-c2ccccc2)n1C (stereo unspecified),-0.1,2.2,0.1,4%,-2,4.3,0.69
COc1cc(OC)nc(NC(=O)CS(=O)(=O)c2ccccc2)n1,1.2,-1.4,1.2,-11%,1,-0.6,0.74
CCCCn1c(N)c(N(CCOC)C(=O)COC(=O)c2cc(CCC)c(C)s2)c(=O)[nH]c1=O,-0.3,-1.2,0.1,-8%,-6,-0.2,0.66
CC(=O)Nc1ccc(C(=O)N2CC(=O)NC(=O)C2)cc1,0.2,1.6,2.5,28%,11,-2.8,0.68
Cc1ccc(S(=O)(=O)N2CCN(c3cc4c(cc3[N+](=O)[O-])n(C)c(=O)n4C)CC2)cc1,-0.4,4.1,6.4,0%,10,3.9,0.63
Cc1ccc(S(=O)c2ccc(NC(=O)C3CC3)cc2C#N)cc1 (stereo unspecified),-1.0,-1.4,0.1,4%,-5,-7.4,0.62
CC1(C)NC(=O)N(CC(=O)OCC(=O)Nc2sccc2C#N)C1=O,-0.4,-4.6,3.1,-2%,-1,1.2,0.63
CC(=O)Nc1ccc(S(=O)(=O)NCCCN2CCOCC2)cc1,0.7,2.0,3.6,/,-6,2.4,0.65
Cc1ccc(C(=O)NNC(=O)/C=C\C(=O)O)cc1,0.2,-0.6,5.8,/,3,-0.9,0.64
Cc1[nH]c(=O)[nH]c(=O)c1S(=O)(=O)Nc1cccc([N+](=O)[O-])c1C,-0.2,-2.5,3.2,-2%,-5,2.0,0.66
CC1CC(CCC(=O)NC(=S)Nc2ccc(Cl)cn2)C(=O)O1 (stereo unspecified),0.6,2.9,0.4,?,-15,-2.8,0.69
O=C(CCC1CCCN(C(=O)C2=CCCC2)C1)N1CCN(c2ccccn2)CC1 (stereo unspecified),-0.4,-1.9,-4.4,/,-1,-3.0,0.7
CN(C)S(=O)(=O)c1cccc(NC(=O)c2cc3ccccc3o2)c1,-0.2,1.8,6.6,4%,2,-1.2,0.71
CC1CCN(CCCCOc2ccc(Cl)cc2)CC1,-0.4,2.5,0.2,-10%,-1,-3.7,0.67
COc1cc2[nH]c(=S)n(NC(=O)CC(C)C)c(=O)c2cc1OC,0.4,-5.5,3.4,0%,2,6.0,0.67
O=S(=O)(NC1=NCCCCC1)c1ccc2sc(NS(=O)(=O)c3ccc4ccccc4c3)nc2c1,-0.5,-2.9,3.1,9%,2,0.4,0.71

# Already shown: 3 of the compounds above.
SMILES,Bfl-1 A1 inh,HNF4A DNA FP,UCH37 DUB inh,Vif TR-FRET,B2AR ag,LANA-H2A inh,Ecoli growth
O=C(COC(=O)C1CC2C=CC1C2)NCCc1ccccc1 (stereo unspecified),1.0,-10,3.2,/,0,1.1,0.67
CCOc1ccc(C(C(=O)NC2CCCCC2)N(C(=O)c2csnn2)C2CC2)cc1 (stereo unspecified),-0.1,3.6,2.5,/,-2,4.5,0.68
COc1cccc(C(=O)OC(C)C(=O)Nc2ccc3c(c2)OCO3)c1 (stereo unspecified),-0.1,-0.4,1.5,-1%,-2,3.7,0.67

# More compounds
SMILES,Bfl-1 A1 inh,HNF4A DNA FP,UCH37 DUB inh,Vif TR-FRET,B2AR ag,LANA-H2A inh,Ecoli growth
COc1ccc(NCc2nnc(SCC(=O)Nc3ccc(OC)cc3OC)o2)cc1,0.3,4.6,-0.8,-4%,3,-6.0,0.63
CN(CC(=O)Nc1ccc(Cl)c(Cl)c1)C(=O)CNC(=O)C1CCCCC1,-0.8,1.8,0.6,-4%,-6,-42,0.69
CCC(Cc1ccccc1)NC(=O)Cn1cccc1C(=O)c1ccccc1 (stereo unspecified),0.4,-2.1,4.9,1%,1,0.5,0.73
COc1ccc(CN2CC(C(=O)NCCCN3CCCCCC3)CC2=O)cc1 (stereo unspecified),0.8,2.6,0.8,1%,5,-2.2,0.69
CC(=O)Nc1ccc(NC(=O)CN2C(=O)NC3(CCCCCCC3)C2=O)cc1,-0.2,-3.1,4.8,-1%,4,4.0,0.72
CCCc1cc(=O)oc2cc(C)cc(OCC(=O)NCCCN3CCCC3=O)c12,?,3.9,-138,-11%,4,0.1,0.73
COc1ccc(CCNC(=O)c2c(O)c3cccc4c3n(c2=O)CC4)cc1OC,0.2,6.0,-2.7,/,-8,0.9,0.73
CC(C)c1ccc(OCC(=O)Nc2ccc(S(=O)(=O)Nc3ccccn3)cc2)cc1,0.7,1.6,-5.8,/,0,-0.5,0.71
O=C(Cc1ccc(Cl)cc1)NCC(=O)N1CCN(c2ccccc2)CC1,0.8,3.8,/,/,-2,-5.9,/
Nc1ccc2c(c1)Cc1cc([N+](=O)[O-])ccc1-2,-1.0,37*,29*,-9%,-4,0.1,/
CC1CCN(C(=O)CSc2nc3ccccc3c(=O)n2Cc2ccc3c(c2)OCO3)CC1,0.1,-1.6,1.3,5%,9,-5.7,0.72
CCOc1ccc(CN=C(N)N=C(N)N)cc1Cl,0.5,0.4,3.5,-5%,-4,2.9,0.73
COc1cc(OC)cc(C(=O)N[C@H](C(=O)OCC(=O)Nc2cccc(F)c2)C(C)C)c1,0.8,1.8,-14,5%,0,2.3,0.66
COc1cc(/C=C/C(=O)OCC(=O)NC(=O)NC(C)(C)C)ccc1O,0.8,-5.0,0.9,7%,5,-3.5,0.71
Cc1cc(NC(=O)COC(=O)c2ccc(F)c(S(=O)(=O)N3CCOCC3)c2)no1,-0.2,-1.4,5.5,-1%,-7,0.3,0.68
NC(=O)C1CCN(C(=O)CCC(=O)c2ccc(F)cc2)CC1,-0.1,-0.5,4.9,3%,6,2.0,0.66
c1ccc2c(C3=NNC(=NC4CC4)SC3)c[nH]c2c1,-4.6,1.8,10,/,-11,-13,0.65
CCCCCCCCOC(=O)c1nc(Cl)c(Cl)c(N)c1Cl,0.2,2.3,1.3,2%,-5,-2.0,0.64
Cc1nonc1C(=O)N1CCCC(Nc2ccc(C(C)C)cc2)C1 (stereo unspecified),0.1,1.4,1.1,/,0,-1.8,0.68
CC1Cc2ccccc2N1C1=CC(=O)CCC1 (stereo unspecified),-1.0,3.7,16,-2%,-1,-1.3,0.64
Cc1nc(N2CCOCC2)nc(OCCN2CCOCC2)c1[N+](=O)[O-],-0.2,-0.1,2.5,18%,1,-0.7,0.67
COC(=O)[C@H](C)NC(=O)Nc1cccc(Br)c1,0.9,-1.3,4.2,0%,-1,0.1,0.66
COc1ccc(-n2nc(C(=O)N3CCN(Cc4ccc5c(c4)OCO5)CC3)c3ccccc3c2=O)cc1,-0.4,1.6,-3.5,4%&-4%,-8,8.1,0.71
CC(=O)Nc1ccc(NC(=S)NC(=O)C2CCCC2)cc1,-0.7,-0.7,6.5,3%,-15,5.8,0.71
CCOc1cccc(/C(O)=C2/C(=O)C(=O)N(Cc3cccnc3)C2c2ccco2)c1 (stereo unspecified),0.2,0.4,13,18%,0,4.9,0.68
COc1ccc(/C=N/Nc2cc(C)nc(NS(=O)(=O)c3ccc(C)cc3)n2)cc1,0.6,-2.2,/,29%,-3,-5.8,/
O=C(Nc1cccnc1)OCc1ccccc1,-1.3,2.7,2.0,/,-3,-2.0,0.65
COc1cccc(-n2nnnc2S(C)(=O)=O)c1,3.4,-0.1,/,-15%,32,-0.7,/
O=C(c1ccccc1)c1cnc(Nc2ccc(Cl)c(Cl)c2)s1,-0.4,-0.5,-2.3,-2%,2,0.2,0.69
